# Cruzain Triton: inhibitors of Trypanosoma cruzi cruzain with detergent. P25779. purified cruzain, Z-FR-AMC fluorescence, 0.01% Triton. Potency, µM, for inactives: max response, negative = inhibition, usual class: inhibitors. hit rate 0.43% among 200,000; active = well fitted curve in the direction sought with a large enough effect; inconclusive = small, poorly fitted or top-dose-only effect, or another doubt; inactive = no such curve, though single readings can be large; an effect the other way counts as inactive or inconclusive;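 note: plate controls were neutral wells for no effect and buffer without enzyme for full effect; nearly all actives have a fitted effect of over 40% in size; top concentration of the series not given in the record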
# Target sequence (P25779 123-467 limits assumed): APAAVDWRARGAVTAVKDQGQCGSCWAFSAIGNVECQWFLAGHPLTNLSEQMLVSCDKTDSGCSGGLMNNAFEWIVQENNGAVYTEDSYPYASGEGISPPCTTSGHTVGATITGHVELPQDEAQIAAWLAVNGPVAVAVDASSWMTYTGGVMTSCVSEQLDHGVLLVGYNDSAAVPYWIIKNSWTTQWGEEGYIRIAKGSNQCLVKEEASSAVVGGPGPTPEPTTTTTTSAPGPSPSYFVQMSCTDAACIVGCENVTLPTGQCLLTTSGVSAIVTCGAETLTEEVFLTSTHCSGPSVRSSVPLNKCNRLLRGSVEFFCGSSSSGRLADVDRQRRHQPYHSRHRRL
#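 In this qHTS format, compounds are incubated with 1.5 nM cruzain for 15 min at room temperature before 2 uM Z-FR-AMC is added. Release of AMC is followed at 360/450 nm, and progress is taken as the 60 s fluorescence difference.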
# MARV entry inh: inhibitors of Marburg virus binding or cell entry | hit rate 1.8% among 300,000 | AID 540276 | Potency, µM (series often up to 37.8 µM), for inactives: at the top dose activity change, negative = inhibition, usual class: inhibitors | Marburg virus pseudotyped entry inhibition, cell reporter; control for the full effect not named in the record; about a third of the inactives were read at about 46 µM; active = well fitted inhibition curve with a large enough effect; inconclusive = small, poorly fitted or top-dose-only effect, or effect the other way; inactive = flat fitted curve, though single readings scatter; tested in HEK293 cells; about a fifth of its hits are not listed in these tables; note: % is set by controls: 0 for no effect and ±100 for the full control effect; luciferase read-out
# StopGo reporter: lowers the luciferase signal of an FMDV 2A StopGo reporter; hit rate 1.2% among 410,000; Potency, µM (highest dose often 57.9 µM), for inactives: at the top dose signal change, negative = less light; human cells with a luciferase reporter of 2A StopGo recoding; control for the full effect not named in the record; active = well fitted falling curve with a large enough effect; inconclusive = small, poorly fitted or top-dose-only effect; inactive = no such curve, though single readings can be large or run the other way; tested in HEK293T cells; note: % is set by controls: 0 for no effect and ±100 for the full control effect; nearly all actives have a fitted effect of over 45% in size; luciferase light after 4 h
# Cruzain inh noDet: cruzain (T. cruzi) inhibition without detergent; Potency, µM, for inactives: max response, negative = inhibition, actives largely listed as inhibitors; AID 1476; purified cruzain, Z-FR-AMC fluorescence, no detergent; P25779; hit rate 2.3% among 200,000; active = well fitted curve in the direction sought with a large enough effect; inconclusive = small, poorly fitted or top-dose-only effect, or another doubt; inactive = no such curve, though single readings can be large; an effect the other way counts as inactive or inconclusive;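 note: plate controls were enzyme without inhibitor for no effect and buffer without enzyme for full effect; nearly all actives have a fitted effect of over 40% in size; top concentration of the series not given in the record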
#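 Purified cruzain at 1.5 nM, pre-incubated 15 min with compound at room temperature in 100 mM sodium acetate pH 5.5, 5 mM DTT, 0.00005% Triton X-100. Reaction started with 2 uM Z-FR-AMC; AMC fluorescence increase over 60 s gives rate.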
# Lassa entry inh: Lassa virus entry inhibition; Lassa virus pseudotype entry inhibition, cell reporter; control for the full effect not named in the record; Potency, µM (series often up to 37.9 µM), without a hit: at the highest dose activity change, negative = inhibition, most hits filed as inhibitors; hit rate 1.2% among 300,000; AID 540256; active means well fitted inhibition curve with a large enough effect; inconclusive means small, poorly fitted or top-dose-only effect, or effect the other way; inactive means flat fitted curve, though single readings scatter; tested in HEK293 cells; note: % is set by controls: 0 for no effect and ±100 for the full control effect; nearly all actives have a fitted effect of over 50% in size; luciferase read-out
# NS1 function inh: inhibitors of influenza NS1 protein function; S. cerevisiae slowed by influenza A NS1, growth recovery by OD600; Potency, µM (top dose mostly 46.1 µM), without a hit: at the top dose activity, positive = more growth; hit rate 0.4% among 270,000; AID 2326; note: actives are rising curves; nearly all actives have a fitted effect of over 50% in size
#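 Read-out: OD600 growth recovery of NS1-expressing budding yeast. Cells grown overnight at 30C in -URA glucose medium, washed, resuspended and diluted 1:100 in 2% galactose assay medium, pH 6.0. Same strain lacking NS1 served as positive control.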
# RE007 growth inh: less growth of the S. pombe RE007 Vpr strain; hit rate 0.21% among 360,000; S. pombe RE007 Vpr strain, BacTiter-Glo ATP luminescence, 24 h; control for the full effect not named in the record; AID 651644; Potency, µM (doses to about 92.2 µM), for the others: at the top dose activity change, negative = less growth; active = well fitted falling curve with a large enough effect; inconclusive = small, poorly fitted or top-dose-only effect; inactive = no such curve, though single readings can be large or run the other way;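 note: % is set by controls: 0 for no effect and ±100 for the full control effect; nearly all actives have a fitted effect of over 50% in size; the assay follows cell death caused by Vpr and the record does not say whether a fall means rescue or toxicity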
#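 Fission yeast RE007 carrying one integrated HIV-1 vpr copy, seeded at OD 0.01 in PMG+AL medium with 23 nL pinned compound. Grown 24 h at 30 degrees; viability read by BacTiter-Glo luminescence after 5 min.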
# SARS PLpro yeast: blocks SARS-CoV papain-like protease in a yeast assay; Potency, µM (titrated, usually from 32.9 µM), for inactives: top-dose activity, positive = growth rescue; S. cerevisiae expressing SARS-CoV PLpro, growth rescue; control for the full effect not named in the record; hit rate 0.19% among 330,000; note: 0% is about no effect; nearly all actives have a fitted effect of over 55% in size; growth read by luminescence after 48 h
# Active calls of the source: *; u = inconclusive; x = no result given; & = joins results of further samples; [ ] = another dose, or the depositor's remark. Unless noted, calls come from the whole dose curve; as a rule, active means well fitted rising curve with a large enough effect; inconclusive means small, poorly fitted or top-dose-only effect; inactive means no such curve, though single readings can be large or run the other way. Potency is the fitted concentration of half-maximal effect.
SMILES,Cruzain Triton,MARV entry inh,StopGo reporter,Cruzain inh noDet,Lassa entry inh,NS1 function inh,RE007 growth inh,SARS PLpro yeast
CCCCN(CC)Cc1c(O)ccc2c3c(c(=O)oc12)CCC3,x,x,19%,x,x,-4%,-15%,-1%
CCN1CCN(Cc2nc(N)nc(Nc3ccc(C)c(C)c3)n2)CC1,-0.9%,11%,6%,-10%,28%,u,-6%,18%
CNC(=O)c1ccc(N(Cc2ccccc2C)S(C)(=O)=O)cc1,3.8%,1%,-19%,0%,2%,1%,-21%,6%
CC(C)CCOc1ccc(Cl)cc1CN1CCOCC1,-4.3%,u,u,-7%,0%,-2%,-7%,-1%
COc1ccccc1N(CC(=O)NCCN1CCOCC1)S(=O)(=O)c1ccc(C)cc1,x,u,-3%,x,-1%[46.1 µM],x,4%,0%
COc1ccnc(CSC(N)=Nc2ccccc2OC)c1,u,12%,-28%,2%,3%,4%,-14%,-32%
CN(C)P(=NC(=O)COc1ccc(Cl)cc1Cl)(N(C)C)N(C)C,-0.5%,1%,u,17%,17%,-12%,-2%,2%
CCC(=O)Nc1cc(C(=O)N2CCC3(CC2)OCCO3)ccc1S(=O)(=O)c1ccc(C)cc1,2.8%,3%&3%,-22%,0%,7%,-6%,19%,6%
CCOC(=O)N1CCN(Cc2nc3c(c(=O)[nH]c(=O)n3C)n2CCCc2ccccc2)CC1,6.4%,-8%,-17%,16%,u,-15%,11%,2%
O=C(NC1CCN(c2ncccn2)CC1)c1ccccc1Cl,x,x,11%,x,x,0%,4%,0%
Cc1cc(O)c(-c2cc(C(=O)Nc3sc4c(c3C(=O)NCc3ccco3)CCC4)[nH]n2)cc1C,x,x,-4%,x,x,u,-1%,0%
CC12CN3CC(C)(CN(C1)C3c1cc(Br)ccc1O)C2=O (configuration not stated),0.6%,-27%,-21%,-10%,10%,-4%,2%,3%
COc1ccc(OC)c(CNC(=O)CCNC(=O)Cn2ccc3ccccc3c2=O)c1,-3.2%,1%,-16%,-1%,4%,-14%,0%,0%
COc1cc2c(cc1OC)C(Nc1ccccc1)=NC(C)(C)C2,-2.3%,-11%,-17%,-8%,-19%,-8%,-12%,12%
O=C(Nc1sc2c(c1C(=O)O)CCCC2)c1cccs1,-8.0%,9.2µM*,14%,-21%,u,-180%,-39%[3.69 µM],-53%
C#CCn1cnc2c(oc3ccccc32)c1=O,x,x,44%[activator],x,x,-20%,17%,-2%
CCC(c1nnnn1Cc1ccco1)N(CCc1ccccc1)Cc1cc2cccc(C)c2[nH]c1=O (configuration not stated),-8.5%,u,-10%,-26%,u,u,1%,-6%
COCCCNC(=O)C(C#N)c1nc2ccccc2nc1N1CCN(Cc2ccccc2)CC1 (configuration not stated),-8.1%,3%&3%,u,1%,16%,5%,-20%,6%
Cc1ccc(-c2nn3c(=O)cc(CN4CCN(C(=O)/C=C/c5ccccc5)CC4)nc3s2)cc1,1.4%,x,-21%,3%,u,x,x,x
CCOc1nc(Nc2cc(Cl)ccc2OC)nc(OCC)n1,1.2%,6%,-5%,u,-17%,-2%,-20%,-2%
Cc1ccc(NC(=O)COc2cccc3c2OC(C)(C)C3)c(O)c1,x,u,2%,x,-8%,x,-8%,-6%
CCC1(C)OC(c2ccccc2)=C/C(=C/C=C2C(=O)NC(=O)NC2=O)O1 (configuration not stated),x,-10%,-2%,x,0%,x,-8%,1%
Cc1ccc(C)c(NC(=O)C2CC(=O)N(C3CCCCC3)C2)c1 (configuration not stated),x,-4%[46.1 µM],-15%,x,10%[46.1 µM],0%,-8%,0%
Cc1ncn(C23CC4CC(CC(O)(C4)C2)C3)n1,5.1%,2%,13%,3%,6%,-8%,2%,-23%
Cc1ccc(-n2nc(C)c3c(C)cc(=O)n(CC(=O)Nc4cc(Cl)ccc4C)c32)cc1,-0.2%,x,0%,-16%,25%[46.1 µM],x,x,x
Cc1ccc(-n2c(N)c(C(=O)Nc3c(C)n(C)n(-c4ccccc4)c3=O)c3nc4ccccc4nc32)cc1,-11%,u,-3%,u,17%,7%,-2%,5%
COc1cc(/C=N/Nc2nc(C)nc3c2cnn3-c2ccccc2)ccc1O,x,11µM*,-1%,x,u,-4%,-15%,0%
Cc1cc(NC(=O)CSc2nc(=O)cc(N)n2-c2ccc(C)c(C)c2)no1,x,x,-25%,x,x,11%,-5%,3%
O=C(NC(=S)Nc1ccc(N2CCOCC2)cc1)c1ccc2c(c1)OCCO2,-9.3%,-18%,-29%,-16%,u,26%,-14%,5%
CN=Cc1c(NC)nc2c(C)cccn2c1=O,-2.4%,u,-17%,-7%,7%,-6%,-14%,-1%
O=C(CCNC(=O)c1ccco1)Nc1nc(-c2ccccc2)cs1,x,-25%,1%,x,u,x,-19%,0%
CN(C)C(CNC(=O)CSc1nc2sc3c(c2c(=O)n1C)CCC3)c1ccccc1 (configuration not stated),x,-8%,0%,x,10%,x,15%,10%
CSc1ccc(CN(C)C(=O)CN2C(=O)NC3(CCCC3)C2=O)cc1,x,13%,-21%,x,-3%,x,7%,-4%
CC1CC(C)(C)NC(=S)N1CCCC(=O)N1CCN(c2ccc(F)cc2)CC1 (configuration not stated),0.4%,u,0%,21%,u,-1%,-3%,1%
COc1cc(NS(=O)(=O)c2ccc(NC(=S)NC(=O)c3ccc(F)c(F)c3)cc2)nc(OC)n1,x,x,36%[activator],x,x,9%,14%,-1%
Cc1ccc(S(=O)(=O)C2(C(=O)Nc3ccc(C(C)C)cc3)CC2)cc1,-8.1%,u,22%&60%,0%,u,x,-2%,-2%

# In the list so far, three have an aryl thioether with sulfur outside any ring.
SMILES,Cruzain Triton,MARV entry inh,StopGo reporter,Cruzain inh noDet,Lassa entry inh,NS1 function inh,RE007 growth inh,SARS PLpro yeast
Cc1cc(NC(=O)CSc2nc(=O)cc(N)n2-c2ccc(C)c(C)c2)no1,x,x,-25%,x,x,11%,-5%,3%
CN(C)C(CNC(=O)CSc1nc2sc3c(c2c(=O)n1C)CCC3)c1ccccc1 (configuration not stated),x,-8%,0%,x,10%,x,15%,10%
CSc1ccc(CN(C)C(=O)CN2C(=O)NC3(CCCC3)C2=O)cc1,x,13%,-21%,x,-3%,x,7%,-4%

# Next section.
SMILES,Cruzain Triton,MARV entry inh,StopGo reporter,Cruzain inh noDet,Lassa entry inh,NS1 function inh,RE007 growth inh,SARS PLpro yeast
Cc1cccc(N)c1SC1CCCCC1O (configuration not stated),-2.8%,u,-10%,-3%,11%,0%,3%,4%
CCOC(=O)c1cnc2cc(C)ccn2c1=O,-2.7%,-17%,20%,-15%,1%,8%,-21%,4%
COc1cc(Cl)cc(/C=C/c2ccc3cccc(O)c3n2)c1OC,x,1%[46.1 µM],19%,x,0%,0%,4%,1%
CC(C)OCCCNS(=O)(=O)c1ccc2c(c1)OCCO2,1.7%,-1%,8%,2%,7%,2%,-4%,-1%
Nc1cc(=O)[nH]c(SCCSc2ccccc2F)n1,x,u,6%,x,17%[46.1 µM],5%,0%,-1%
Cc1cccc(N(C)C(=O)c2coc(=O)c3ccccc23)c1,-0.6%,-15%,3%,4%,1%,1%,14%,u
NC(=S)Nc1c(Cl)cccc1Cl,x,x,0%,x,x,1%,6%,1%
O=C(NC1CCCC1)c1c[nH]c2ccc(F)cc2c1=O,2.8%,7%,14%,-3%,5%,-6%,-7%,1%
Cc1ccc(C)c(S(=O)(=O)NCc2ccc(C(=O)NCc3ccco3)cc2)c1,0.4%,u,5%,17%,0%,4%,16%,3%
CNc1nc(Cl)c(SC)c(NCc2cccc(OC)c2)n1,x,u,u,x,-8%[46.1 µM],-3%,-1%,-4%
O=C(COc1ccc(Cl)cc1Br)NC(=O)NC1CCCC1,x,9%,26%,x,10%,x,u,-3%
O=C(c1cnc2n(c1=O)CCS2)N1CCCc2ccccc21,-5.1%,13%,9%,-10%,3%,7%,-8%,-26%

# In the list so far, these contain a thiophene ring, fused or not:
SMILES,Cruzain Triton,MARV entry inh,StopGo reporter,Cruzain inh noDet,Lassa entry inh,NS1 function inh,RE007 growth inh,SARS PLpro yeast
Cc1cc(O)c(-c2cc(C(=O)Nc3sc4c(c3C(=O)NCc3ccco3)CCC4)[nH]n2)cc1C,x,x,-4%,x,x,u,-1%,0%
O=C(Nc1sc2c(c1C(=O)O)CCCC2)c1cccs1,-8.0%,9.2µM*,14%,-21%,u,-180%,-39%[3.69 µM],-53%
CN(C)C(CNC(=O)CSc1nc2sc3c(c2c(=O)n1C)CCC3)c1ccccc1 (configuration not stated),x,-8%,0%,x,10%,x,15%,10%

# Additional structures:
SMILES,Cruzain Triton,MARV entry inh,StopGo reporter,Cruzain inh noDet,Lassa entry inh,NS1 function inh,RE007 growth inh,SARS PLpro yeast
Cc1nn(Cc2ccccc2Cl)c(C)c1NC(=O)/C=C/c1cnn(C)c1,-1.9%,-9%,-24%,6%,-3%,5%,-2%,-3%
C=CCN1C(=NC(=O)CCC)SC2CS(=O)(=O)CC21 (configuration not stated),3.1%,25%,7%,-4%,-4%,-13%,8%,2%
COc1cccc(C2C(C(=O)c3cc4cccc(OC)c4o3)=C(O)C(=O)N2c2cc(C)on2)c1OC (configuration not stated),-16%,-7%&-7%,u,u,-17%,14%,-3%,-2%
CC(C)[C@H](NC(=O)[C@@H]1Cc2ccccc2CN1)C(=O)Nc1ccc2c(c1)OCCO2,x,x,-12%,x,x,-11%,-6%,0%
CCCC(=O)Nc1ccc2nc(SCC(=O)N3CCCC3)sc2c1,x,-2%[46.1 µM],18%,x,6%,0%,-15%,-1%
COc1cccc(OCCn2c(C)c(/C=N/n3cnnc3)c3ccccc32)c1,-2.6%,-10%,-28%,u,-2%,1%,2%,-4%
COc1cc(C(=O)O/N=C(\N)c2ccccn2)cc(OC)c1OC,x,x,59%[activator],x,x,-4%,1%,-1%
O=C(NCCc1cccnc1)c1cc(COc2ccc(F)cc2F)on1,x,x,-4%,x,x,-18%,-23%,-11%
CC(C)(CC(=O)O)CC(=O)NCc1c(Cl)cccc1Sc1ccc(Cl)cc1,x,x,-11%,x,x,7%,5%,2%

# Screening data: PubChem BioAssay, National Center for Advancing Translational Sciences (NCATS)
